High-throughput results: PubChem BioAssay, several laboratories
T cruzi repl – blocks replication of Trypanosoma cruzi | T. cruzi beta-gal in NIH3T3, luminescence, 90 h | inhibition, % (no concentration beside the values) | 1.4% of 300,000 active | AID 1885;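 active = mean inhibition across valid replicates above about 55%, limit read from the data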;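 also: signal also drops with host cell toxicity which is not excluded here; 0% = plate median of DMSO wells and 100% = zero luminescence signal; higher percent means less beta-gal luminescence so fewer parasites; stock transfer was 50 nL into about 50 µL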
Ecoli growth – inhibitors of Escherichia coli growth; 0.21% of 330,000 active; AID 1053175; OD600 absorbance (test concentration not listed); OD600, 23 h; hits give low values;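 active = OD600 absorbance below the run mean of sample wells minus 3.6 SD, in any replicate, cut at about 0.56 in these data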;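 also: stock transfer was 300 nL into about 60 µL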
Ecoli rRNA inh – selective bacterial rRNA inhibition in E. coli. 1.6% of 350,000 active. GFP signal change (wild-type ribosome), % (concentration not given with the values). E. coli WT GFP vs humanized-ribosome RFP mutants, fluorescence, 24 h; hits give low values; DMSO median 0, no signal -100;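 active = significant combined selectivity score with lowered wild-type GFP, culture density cut under 30%, mutant RFP and density less affected; inactive = any of these conditions unmet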; also: one replicate is shown; some compounds called inactive have numbers as strong as hits
Bfl-1 A1 inh – inhibitors of the anti-apoptotic protein A1, read as caspase activation. MEF A1-2A-BIM cells, Caspase-Glo 3/7 luminescence, 3 h; percent of clofoctol response, vehicle zero. caspase activation, % (concentration not given with the values). 0.066% of 330,000 active;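 active = over half of replicate activation scores above 10%, or exactly half above 10 with the replicate mean above 10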;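 also: wells of about 30 µL received 50 nL stock; many hits fall short of the cut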
Beta apoptosis – blocks beta cell apoptosis; protection from apoptosis, % (no concentration beside the values); AID 435005; 0.8% of 300,000 active; INS-1E cytokine-induced death, ATP luminescence, 48 h; percent of positive-control rescue, neutral wells zero;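 active = all replicates at 75% or more, or half of them and the mean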;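 also: 0% = cytokine-treated negative control wells and 100% = positive control rescue; higher means more ATP so stronger rescue from cytokine killing; wells of about 40 µL received 100 nL stock; the first replicate is given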
FGF22 binding – shifts melting point of recombinant human FGF22; calls only at 9.99 µM; Q9HCT0; 1.5% of 340,000 active; recombinant FGF22 thermal shift, SYPRO orange fluorescence; percent of sucrose octasulfate shift, DMSO zero;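 active = melting point raised past a set limit in the mean and every replicate; three in four hits are not shown here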
Target sequence (Q9HCT0 whole entry, looked up): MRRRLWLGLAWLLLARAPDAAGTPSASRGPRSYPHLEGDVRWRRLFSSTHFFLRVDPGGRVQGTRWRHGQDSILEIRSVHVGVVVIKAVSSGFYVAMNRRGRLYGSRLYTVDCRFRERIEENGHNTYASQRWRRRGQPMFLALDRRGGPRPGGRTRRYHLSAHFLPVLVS
UCH37 DUB inh – human UCH37 deubiquitinating enzyme inhibition | purified proteasome/UCH37, Ub-AMC cleavage fluorescence | inhibition, % (test concentration not listed) | 0.33% of 330,000 active;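 active = mean of two replicates above 20%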;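 also: 0% = compound-free wells with enzyme and 100% = wells lacking proteasome; stock transfer was 100 nL into about 20 µL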
Target sequence (Q9Y5K5 whole entry, looked up): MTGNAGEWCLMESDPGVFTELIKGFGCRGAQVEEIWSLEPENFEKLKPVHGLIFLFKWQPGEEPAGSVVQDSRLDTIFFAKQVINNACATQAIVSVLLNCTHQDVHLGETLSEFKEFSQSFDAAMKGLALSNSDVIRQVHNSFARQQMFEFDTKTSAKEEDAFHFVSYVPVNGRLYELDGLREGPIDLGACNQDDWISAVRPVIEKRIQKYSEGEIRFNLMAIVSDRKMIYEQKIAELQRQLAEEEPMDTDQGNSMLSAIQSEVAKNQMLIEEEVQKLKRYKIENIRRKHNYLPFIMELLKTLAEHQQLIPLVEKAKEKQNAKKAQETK
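Assay system: Proteasome-bound UCH37. Buffer or medium: pH 7.4 Tris-HCl (50 mM) with ovalbumin, ATP-MgCl2, DTT. Incubation: 30 min preincubation with enzyme, 25 min cleavage at room temperature. Measured by: fluorescence, ex 355 nm, em 460 nm. Read-out basis: percent inhibition. Control set: wells without proteasome as full block, compound-free enzyme plus substrate as uninhibited.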
MLL AF4-AF9 inh – MLL-AF4/AF9 protein interaction inhibition. AlphaScreen, biotin-AF4 peptide binding to FLAG-AF9. inhibition, % at 10 µM. 0.47% of 350,000 active. P42568;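 active = every replicate reaching a set inhibition limit, whatever the replicate mean, cut at about 25% in these data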;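 also: 0% = plate neutral control median and 100% = total signal loss; the record names both 10 and 1 µM as test concentration; the first replicate is given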
Target sequence (P42568 whole entry, looked up): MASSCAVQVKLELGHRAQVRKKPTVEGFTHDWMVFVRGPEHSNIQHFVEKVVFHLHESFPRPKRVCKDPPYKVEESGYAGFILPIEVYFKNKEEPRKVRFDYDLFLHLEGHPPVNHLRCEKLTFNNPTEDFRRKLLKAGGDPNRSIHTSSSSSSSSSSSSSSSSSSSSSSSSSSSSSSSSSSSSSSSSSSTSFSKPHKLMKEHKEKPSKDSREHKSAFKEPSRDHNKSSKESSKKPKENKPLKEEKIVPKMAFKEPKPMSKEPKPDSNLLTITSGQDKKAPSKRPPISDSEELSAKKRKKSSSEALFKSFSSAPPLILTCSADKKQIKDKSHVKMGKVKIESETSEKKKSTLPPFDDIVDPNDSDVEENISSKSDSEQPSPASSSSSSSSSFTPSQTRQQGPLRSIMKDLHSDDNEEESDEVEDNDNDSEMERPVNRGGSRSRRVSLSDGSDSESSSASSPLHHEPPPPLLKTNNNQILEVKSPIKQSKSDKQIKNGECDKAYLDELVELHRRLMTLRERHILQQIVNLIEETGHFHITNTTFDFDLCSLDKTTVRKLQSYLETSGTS
Ecoli rRNA inh OD600 – second read-out of Ecoli rRNA inh, no call of its own (marks repeat the call); OD600 change, %; measured here: OD600 growth;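 optical density of the mix in the first replicate; 0 = DMSO median and -100 = no signal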
Ecoli rRNA inh RFP – further read-out of Ecoli rRNA inh, marked with its call; RFP signal change, %; measured here: RFP humanized mutant strains;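 first replicate; 0 = DMSO median and -100 = no signal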
Starred values were filed as active, the others as inactive; i = inactive; nt = not tested or not shown; & = joins results of further samples. Some of the compounds tested (hit frequency here may not be typical).

Sample of the layout, five compounds:
SMILES | T cruzi repl | Ecoli growth | Ecoli rRNA inh | Ecoli rRNA inh OD600 | Ecoli rRNA inh RFP | Bfl-1 A1 inh | Beta apoptosis | FGF22 binding | UCH37 DUB inh | MLL AF4-AF9 inh
CC(NC(=O)c1cccc(C(F)(F)F)c1)C(c1ccccc1)N1CCOCC1 (centres undefined) | 2 | 0.64 | 1 | 0 | 2.2 | 0.1 | 5 | i | 1.3 | -1.0
CN(C)S(=O)(=O)c1ccc2[nH]cc(/C=C/c3nc4ccccc4c(=O)n3-c3ccccc3)c2c1 | 14 | 0.68 | nt | nt | nt | 0.8 | 30 | nt | -104 | nt
Cc1ccc2c(c1)NC(=O)C(CC(=O)NCCN(CC(C)C)CC(C)C)O2 (centres undefined) | -8 | 0.67 | 5 | 11 | -1.0 | 0.0 | -3 | i | 1.5 | -1.4
COc1ccc(C(CC(=O)NCc2ccccc2)Sc2n[nH]c(-c3ccc(Cl)cc3)n2)cc1 (centres undefined) | 5 | 0.69 | 14 | 19 | 4.5 | 1.2 | 2 | i | 2.3 | -1.2
Cc1sc2ncnc(Oc3ccc(-n4ccnc4)cc3)c2c1C | 39 | 0.7 | nt | nt | nt | 0.7 | 6 | nt | 3.5 | nt

All compounds of this part (from the top)
SMILES | T cruzi repl | Ecoli growth | Ecoli rRNA inh | Ecoli rRNA inh OD600 | Ecoli rRNA inh RFP | Bfl-1 A1 inh | Beta apoptosis | FGF22 binding | UCH37 DUB inh | MLL AF4-AF9 inh
CC(NC(=O)c1cccc(C(F)(F)F)c1)C(c1ccccc1)N1CCOCC1 (centres undefined) | 2 | 0.64 | 1 | 0 | 2.2 | 0.1 | 5 | i | 1.3 | -1.0
CN(C)S(=O)(=O)c1ccc2[nH]cc(/C=C/c3nc4ccccc4c(=O)n3-c3ccccc3)c2c1 | 14 | 0.68 | nt | nt | nt | 0.8 | 30 | nt | -104 | nt
Cc1ccc2c(c1)NC(=O)C(CC(=O)NCCN(CC(C)C)CC(C)C)O2 (centres undefined) | -8 | 0.67 | 5 | 11 | -1.0 | 0.0 | -3 | i | 1.5 | -1.4
COc1ccc(C(CC(=O)NCc2ccccc2)Sc2n[nH]c(-c3ccc(Cl)cc3)n2)cc1 (centres undefined) | 5 | 0.69 | 14 | 19 | 4.5 | 1.2 | 2 | i | 2.3 | -1.2
Cc1sc2ncnc(Oc3ccc(-n4ccnc4)cc3)c2c1C | 39 | 0.7 | nt | nt | nt | 0.7 | 6 | nt | 3.5 | nt
O=C(c1ccc(F)cc1)N1CCC(c2ccccc2)C1 (centres undefined) | 2 | 0.69 | 7 | 1 | 3.7 | 0.7 | 6 | i | -1.2 | -0.1
CCc1ccc(CN(C)C(=O)CCc2nc3ccccc3n(-c3ccc(OC)cc3)c2=O)cc1 | 38 | 0.72 | 13 | 8 | 7.4 | -1.3 | 5 | nt | 1.9 | 6.3
Cc1ccc(C(=O)OCC(=O)Nc2ncc(C(F)(F)F)cc2Cl)cc1NC(=O)c1ccco1 | -15 | 0.76 | nt | nt | nt | 0.3 | -2 | nt | -2.4 | nt
COc1ccccc1C(=O)NC(=Nc1nc2ccccc2o1)NC(=O)c1ccccc1OC | 71* | 0.68&0.7 | 9 | -7 | 3.6 | 0.1 | 26 | i | 2.9&1.3 | -5.5
COc1ccc(-c2noc(N3CCC(C(=O)Nc4ccccc4Cl)CC3)n2)cc1 | 26 | 0.77 | 4 | 7 | 1.5 | 0.6 | 2 | i | 2.8 | 3.8
Cc1ccc(-c2cc(C(=O)O)c3ccccc3n2)c(C)c1 | -1 | 0.67 | 2 | 8 | 4.9 | 0.1 | -5 | i | -9.8 | 1.0
COC(=O)COc1ccc(S(=O)(=O)NCc2cccnc2)cc1 | -13 | 0.62 | 14 | 12 | 2.1 | -0.6 | 10 | nt | 2.3 | nt
OCCN1CCOCCN(CCO)CCN(CCO)CC1 | -9 | 0.74 | nt | nt | nt | 0.0 | -1 | nt | 4.8 | nt
COc1ccc(S(=O)(=O)N(C)C)cc1NCC(=O)Nc1cccc2ccccc12 | -1 | 0.7 | -12 | -11 | -4.9 | 1.1 | -4 | i | 4.6 | 4.5
Cc1cc2c(c(=O)n1Cc1cccnc1)C(c1ccc(F)cc1)C(C#N)=C(N)O2 (centres undefined) | 9 | 0.76 | nt | nt | nt | 0.4 | -3 | nt | 2.3 | nt
CCCCCN(C(=O)CCC(=O)OCC(=O)c1ccc(C(C)CC)cc1)c1c(N)n(CCCC)c(=O)[nH]c1=O (centres undefined) | 11 | 0.67 | nt | nt | nt | -0.7 | -1 | nt | 0.8 | nt
CS(=O)(=O)c1ccc(C(=O)OCC(=O)NC(=O)C2CCCCC2)cc1[N+](=O)[O-] | -6 | 0.65 | 20 | 27 | -0.3 | 2.3 | -31 | i | 1.3 | -1.3
O=C(O)c1cccc(NC(=O)c2cn(-c3ccccc3)nc2-c2ccncc2)c1 | -14 | 0.7 | nt | nt | nt | 1.2 | 0 | i | 3.4 | -3.3
COc1ccc(CNC(=O)CN(Cc2cccs2)C(=O)CCC(=O)Nc2ccccn2)cc1 | nt | 0.71 | 9 | 7 | 1.4 | 0.3 | -2 | i | -0.3 | 1.1
Cc1cc(NCCO)nc(N2CCOCC2)n1 | -13 | 0.75 | nt | nt | nt | 1.1 | -4 | nt | -2.0 | nt
COc1ccc(OC)c(NC(=O)CN(C)S(=O)(=O)c2ccc(Cl)cc2)c1 | -13 | 0.68 | -11 | -12 | 0.2 | -0.4 | -1 | i | 3.0 | -0.3
O=c1c2cc(F)ccc2[nH]c(=S)n1CCCN1CCOCC1 | -10 | 0.66 | nt | nt | nt | 0.5 | -6 | nt | 0.9 | nt
COc1ccccc1/C=C/C=C(\C#N)C(=O)NC(C)c1ccccc1 (centres undefined) | -5 | 0.67 | -8 | -13 | 1.9 | -0.7 | 5 | i | 3.4 | 7.9
Cc1ncc([N+](=O)[O-])n1Cc1cccc(F)c1 | 10 | nt | -5 | -1 | -2.3 | 0.8 | nt | i | nt | 0.4
COc1ccc(CC(=O)Nc2nc(-c3cc(OC)ccc3OC)cs2)cc1 | -6 | 0.69 | -22* | -10* | 2.8* | 0.6 | nt | i | 0.4 | 1.6
(more compounds)
SMILES | T cruzi repl | Ecoli growth | Ecoli rRNA inh | Ecoli rRNA inh OD600 | Ecoli rRNA inh RFP | Bfl-1 A1 inh | Beta apoptosis | FGF22 binding | UCH37 DUB inh | MLL AF4-AF9 inh
O=C(Nc1cc(Br)ccc1O)c1cnn2c(C(F)F)cc(C3CC3)nc12 | 2 | 0.67 | -12 | -3 | 0.3 | -0.4 | 8 | i | -0.4 | 2.1
CN(C)C(=O)c1cccc(-c2csc(N3CCC(C(N)=O)CC3)n2)c1 | nt | nt | 1 | 6 | 0.0 | 0.4 | -7 | i | 0.7 | -2.4
O=C(COC(=O)c1cncc(Br)c1)NCc1ccc(Cl)cc1 | 2 | 0.71 | 14 | 4 | 2.3 | 0.6 | 0 | i | 5.2 | 3.6
C[C@@H](C(=O)Nc1ccc2ccccc2c1)[C@H]1C[C@]1(C)[C@H](NC(=O)OCc1ccccc1)c1ccccc1 | 49 | nt | 23 | 10 | 2.4 | 1.6 | nt | i | 0.5 | 3.5
COc1ccc(S(=O)(=O)Nc2cccc(-c3ccc(N4CCCCCC4)nn3)c2)cc1OC | 13 | 0.72 | 6 | -21 | 1.5 | 0.1 | 11 | i | 1.3 | 0.5
CCOC(=O)N1CCC(NC(=O)c2ccc3c(c2)N(Cc2ccccc2)CCS3)CC1 | 21 | 0.76 | 0 | -1 | -1.0 | 2.5 | 0 | i | -155 | 1.4
O=C(CCS(=O)(=O)Cc1ccccc1)N1CCc2ccccc2C1 | -1 | 0.64 | nt | nt | nt | 0.5 | 4 | nt | 5.0 | nt
CCN(CC(=O)Nc1ccccc1C(F)(F)F)C(=O)c1cccc(S(=O)(=O)N2CCN(C)CC2)c1 | 0 | 0.63 | 8 | 12 | 0.8 | -1.2 | 0 | i | 1.3 | 18
C=CCN1CCS(=O)(=O)N(Cc2ccccc2)[C@@H](C(C)C)C1=O | nt | 0.7 | 2 | 9 | -0.4 | nt | nt | i | 2.6 | -4.7
CC(=O)Nc1cc(S(=O)(=O)C(F)(F)F)ccc1Cl | -4 | 0.74 | nt | nt | nt | 0.9 | 2 | nt | 3.1 | nt
CC(=O)c1ccc(Nc2ncnc3c2oc2ccccc23)cc1 | -21 | 0.72 | nt | nt | nt | -5.9 | 13 | nt | 1.2 | nt
CC(C(=O)N=Nc1c(O)n(C)c2ccc(Br)cc12)n1cnc2ccccc2c1=O (centres undefined) | 4 | 0.71 | 12 | 12 | 4.2 | 0.4 | 6 | i | 4.8 | -1.9
CN1CCN(Cc2c(O)ccc3c(-c4ccccc4)cc(=O)oc23)CC1 | 23 | 0.71 | nt | nt | nt | -0.3 | 0 | nt | -44 | nt
CCOc1ccc2[nH]c(=O)c(C(c3nnnn3C3CCCCC3)N3CCN(C)CC3)cc2c1 (centres undefined) | nt | 0.73 | nt | nt | nt | 0.9 | 7 | nt | -128 | nt
Cc1ccc(S(=O)(=O)N2C[C@@H]3[C@H]4CC[C@H](C4)[C@@H]3[C@@H](C)[C@@H]2c2cn(Cc3ccccc3)c3ccc(F)cc23)cc1 | nt | 0.71 | 3 | 3 | -2.5 | nt | nt | i | -2.1 | 0.0
CN(C(=S)NC(=O)C1(C)CC1(Cl)Cl)c1ccccc1 (centres undefined) | -27 | 0.64 | nt | nt | nt | -0.3 | 1 | nt | 1.4 | nt
COC(=O)c1c(C(=O)NCc2ccccc2)ncn1CC(O)COc1ccccc1 (centres undefined) | -7 | 0.79 | nt | nt | nt | -0.4 | -2 | nt | 2.2 | nt
Cc1ccc(N/C=C(/C#N)c2ccsc2)cc1 | 4 | nt | nt | nt | nt | -0.2 | 6 | nt | 2.4 | nt
COCc1c(C(=O)N/N=C\c2cccnc2)nnn1-c1nonc1N | -11 | nt | 0 | -1 | -1.2 | 0.1 | -7 | i | nt | 5.1
COc1cccc(CNC(=O)c2cccc(NC(=O)CC3SC(N4CCCCC4)=NC3=O)c2)c1 (centres undefined) | nt | 0.67 | 0 | 6 | -0.8 | 0.4 | -6 | i | 3.6 | -5.5
CCN(C(=O)c1ccc2c(c1)OCO2)C1CCS(=O)(=O)C1 (centres undefined) | 8 | 0.66 | 1 | 6 | -0.4 | 0.5 | -3 | i | 4.5 | 0.3
CC(C)(C)C(=O)NC(=S)N1CCc2ccccc21 | -8 | 0.71 | 4 | 2 | 6.0 | -0.3 | -3 | i | 6.3 | -1.5
CN(Cc1ccccc1)c1ncnc2sccc12 | -14 | 0.66 | -7 | -8 | -3.9 | -0.6 | -4 | i | 2.9 | -5.1
Cc1ccc(S(=O)(=O)N2CCC(C(=O)Nc3ccncc3)CC2)cc1 | 2 | 0.73 | -3 | -5 | -0.2 | 0.0 | 3 | i | -1.5 | -2.5
COc1ccccc1NS(=O)(=O)c1cccc(NC(=O)NCCCl)c1 | -2 | 0.7 | -1 | -2 | -3.8 | 0.3 | -2 | i | 3.4 | 4.0
O=C(NCC(=O)N1CCN(c2ccccc2O)CC1)c1cccs1 | -7 | 0.69 | 3 | 11 | -2.6 | 0.9 | -4 | i | 1.2 | -0.6
O=C1c2ccccc2C(=O)C1(CO)c1ccc(OC(F)F)cc1 | 4 | 0.58 | -6 | -7 | -3.3 | -8.3 | 3 | i | 5.6 | 0.2
